gsp antag: gsp mutant antagonism. Potency, µM (titrated, usually from 76.9 µM), for inactives: top-dose activity change, negative = inhibition, hits mostly inhibitors. hit rate 0.4% among 340,000. gsp-mutant cells, cAMP HTRF, 30 min; control for the full effect not named in the record; active = falling curve of any shape with a large fitted effect; inconclusive = falling curve, mostly with a smaller effect; inactive = flat or rising curve; cell line not stated here;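 also: intracellular cAMP measured with PDE inhibitor Ro 20-1724 present during compound exposure; potency is read from the fitted curve at half-maximal effect; % is scaled to controls: 0 for no effect and ±100 for the full control effect; nearly all actives have a fitted effect of over 65% in size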
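G418-selected cells were plated in DMEM/10% FBS for 16-24 h at 37C, then treated with compounds plus the PDE inhibitor […] (300 uM solution added) for 30 min at 37C. Intracellular cAMP was measured by HTRF after 30 min lysis at room temperature.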
D2 agonist: human D2 receptor agonism in beta-arrestin assay; P14416; DiscoveRx PathHunter D2 beta-arrestin, luminescence, 90 min; 100% = 57 uM dopamine signal; activation, % (test concentration not listed); hit rate 0.084% among 360,000; AID 624465; in the data active = activation above about 40%; inconclusive = about 15% to 40%; inactive = below about 15%; also: compound concentration not given in the record; the text of the record calls up to 30% inactive
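Agonist mode: compounds alone added to overnight-plated D2 PathHunter cells for 90 min at 37 C, with 57 uM final dopamine (EC100) defining full response. Beta-arrestin recruitment detected by chemiluminescent reagent, read after 1 h at ambient temperature.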
Six1-Eya2 blk: blocks human Six1 binding to Eya2; Q15475+O00167; AlphaScreen GST-Six1/His-Eya2 binding, biochemical; active compounds read low; control for the full effect not named in the record; activity change, % (test concentration not listed); hit rate 0.56% among 360,000; in the data active = activity change below about -65%; inconclusive = about -30% to -65%; inactive = above about -30%; also: % is scaled to controls: 0 for no effect and ±100 for the full control effect
Target sequence (O00167 whole entry, looked up): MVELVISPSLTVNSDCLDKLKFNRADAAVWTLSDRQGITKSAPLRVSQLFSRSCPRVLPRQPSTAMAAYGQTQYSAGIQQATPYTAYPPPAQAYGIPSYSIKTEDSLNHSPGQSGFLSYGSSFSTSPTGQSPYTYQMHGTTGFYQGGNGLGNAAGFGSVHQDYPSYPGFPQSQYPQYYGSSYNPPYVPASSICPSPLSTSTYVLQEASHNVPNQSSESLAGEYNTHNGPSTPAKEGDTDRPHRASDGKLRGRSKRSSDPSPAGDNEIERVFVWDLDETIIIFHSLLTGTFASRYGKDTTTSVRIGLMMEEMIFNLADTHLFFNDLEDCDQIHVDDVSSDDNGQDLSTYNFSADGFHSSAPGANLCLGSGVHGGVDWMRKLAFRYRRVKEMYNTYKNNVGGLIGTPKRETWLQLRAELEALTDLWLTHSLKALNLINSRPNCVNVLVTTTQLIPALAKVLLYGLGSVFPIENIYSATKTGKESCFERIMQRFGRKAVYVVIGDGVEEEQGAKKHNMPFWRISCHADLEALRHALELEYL
Target sequence (Q15475 whole entry, looked up): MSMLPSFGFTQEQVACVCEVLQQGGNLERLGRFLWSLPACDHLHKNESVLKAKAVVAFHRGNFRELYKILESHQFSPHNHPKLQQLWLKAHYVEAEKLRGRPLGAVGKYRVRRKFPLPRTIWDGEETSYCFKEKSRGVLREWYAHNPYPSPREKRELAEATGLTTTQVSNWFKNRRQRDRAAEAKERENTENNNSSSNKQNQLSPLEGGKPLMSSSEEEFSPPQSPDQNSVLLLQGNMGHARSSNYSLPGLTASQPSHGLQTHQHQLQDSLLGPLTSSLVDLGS
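Homogeneous AlphaScreen proximity assay pairing GST-Six1 with His-tagged Eya2 (added as 5X mix: 250 nM and 500 nM) in 50 mM Tris pH 8.0, 300 mM NaCl, 1 mM TCEP. Glutathione donor and nickel acceptor beads; 1 h, 37 °C, dark.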
CtBP-E1A blk: inhibitors of CtBP/E1A interaction; activity change, % (concentration not given with the values); AlphaScreen GST-E1A/His-CtBP binding, 1536-well; active compounds read low; control for the full effect not named in the record; hit rate 0.49% among 340,000; in the data active means activity change below about -65%; inconclusive means about -30% to -65%; inactive means above about -30%; also: % is scaled to controls: 0 for no effect and ±100 for the full control effect
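Homogeneous bead-based format: GST-tagged E1A captured on glutathione donor beads, His-tagged CtBP on nickel acceptor beads; compounds precede bead addition by 2 h at 37 °C.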
gsp agonist: gsp mutant agonism. gsp mutant cells, cAMP HTRF, 30 min; control for the full effect not named in the record. Potency, µM (top dose mostly 76.9 µM), for inactives: at the top dose activation (cAMP increase), hits mostly activators. hit rate 0.13% among 340,000. AID 624287; active = well fitted activation curve with a large enough effect; inconclusive = small, poorly fitted or top-dose-only effect, or another doubt; inactive = no such curve, though single readings can be large or run the other way; cell line not stated here;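 also: phosphodiesterase inhibitor Ro 20-1724 added with compounds to block cAMP breakdown; potency is read from the fitted curve at half-maximal effect; nearly all actives have a fitted effect of over 60% in size; about a fifth of the inactives were tested at one dose only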
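Cells in DMEM/10% FBS with G418 were pretreated with compounds in DMSO plus […] (300 uM stock) for 30 min at 37C. cAMP was measured by HTRF (cAMP-d2 plus anti-cAMP antibody-K) after 30 min at room temperature.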
D2 PAM: potentiates the human D2 dopamine receptor allosterically; P14416; DiscoveRx D2 beta-arrestin cells, luminescence, 90 min; 100% = 57 uM dopamine signal; potentiation, % (no concentration beside the values); hit rate 0.23% among 360,000; active = potentiation of 50% or more; inconclusive = 30% to 50%; inactive = 30% or less;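 also: compound concentration not given in the record; tested on top of an EC20 dose of dopamine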
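PathHunter beta-arrestin assay in DiscoveRx D2 cells. Compounds were added with an EC20 of dopamine (50 nM final) for 90 min at 37 deg C. Luminescence was read 1 h after detection reagent, with 57 uM dopamine as the EC100 control.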
* hit, by the source's call; ? = inconclusive; / = no result given; [ ] = remark or other dose.

Results follow in this order: gsp antag | D2 agonist | Six1-Eya2 blk | CtBP-E1A blk | gsp agonist | D2 PAM
O=C(CNC(=S)N(CCCN1CCOCC1)Cc1cccs1)NC1CCCCCCC1
→ 0% | 1.1 | 2 | -13 | 7%[15.4 µM] | -11
O=C(NNC1CC(=O)N(c2ccc3c(c2)OCCO3)C1=O)c1ccccc1 (stereo not drawn)
→ 3% | -1.0 | 2 | -3 | -12% | -12
O=C(Nc1ccccc1F)c1cc2c(s1)-c1ccccc1S(=O)(=O)C2
→ -9% | -0.1 | 1 | 11 | 27% | 4
COc1ccc(N2CCN(CCCNC(=O)C3CCN(S(=O)(=O)N4CCOCC4)CC3)CC2)cc1
→ 6% | 3.0 | -1 | 0 | -24% | -8
O=C1N2c3ccccc3CCc3cccc(c32)C1(O)C(F)(F)F (stereo not drawn)
→ ? | -3.5 | -4 | -1 | -5% | 5
CCCCC[C@@H]1C=C(C(=O)O)[C@H](c2ccc(CC)cc2)N1S(=O)(=O)c1ccc(C)cc1
→ 6% | -1.0 | 3 | -4 | / | -3
COc1ccc(NC(=O)c2cc3ccccc3cc2O)cc1
→ 0% | 5.2 | 4 | 3 | -23%[15.4 µM] | 18
O=S(=O)(NN1CCOCC1)c1ccc(Br)cc1
→ 9% | -0.2 | 5 | 6 | ? | 10
Fc1ccc(CSc2nncn2NCc2ccccc2)cc1
→ -3% | -2.8 | -3 | 7 | 5% | 0
O=C(CN1CCN(S(=O)(=O)c2ccc(F)cc2)CC1)Nc1ccc(F)cc1F
→ -1% | -0.5 | 10 | / | -1% | -9
Cc1ccccc1CNc1nc(N)n(-c2ccccc2)n1
→ -8% | -3.6 | 9 | -16 | -29% | -5
COc1ccc(C(=O)CSc2nc(=O)n3ccc(C)cc3n2)cc1
→ / | -0.9 | -7 | 2 | ? | -6
COc1ccc(C2=NS(=O)(=O)N(C)C(C(=O)N(C)Cc3ccccc3)=C2)cc1OC
→ -16% | 8.8 | 5 | 2 | -7% | 0
O=S(=O)(Nc1nc2ccccc2nc1NCCO)c1cccc(Cl)c1
→ ? | -1.9 | -1 | 3 | -19% | -13
COc1ccc(S(=O)(=O)N2CC(C)N(C(=O)N(C)C)C2C)cc1 (stereo not drawn)
→ 7% | -1.4 | 10 | -1 | 14%[15.4 µM] | 8
O=C(O)C12CC3CC(C1)CC(n1ncc(NCc4ccccc4)c(Cl)c1=O)(C3)C2
→ 2% | 8.6 | 16 | 8 | 2% | 8
O=S(=O)(NCCc1ccccc1)c1ccc(Br)cc1
→ 2% | 6.1 | 5 | 12 | -29% | -3
O=S1OCCN1c1ccccc1 (stereo not drawn)
→ ? | -3.6 | -3 | 2 | / | -8
Cc1cc(C)n(CCCNC(=O)C2CC(=O)N(Cc3ccccc3)C2)n1 (stereo not drawn)
→ 9% | -4.9 | -2 | 7 | -9% | 9
N#CCCn1ccc(NC(=O)c2ccc(Cl)cc2)n1
→ 1% | -8.8 | 1 | 5 | 26% | -6
O=C(c1ccc(C(F)(F)F)cc1)C1CCCN(C(=O)CCN2CCCO2)C1 (stereo not drawn)
→ 6% | 2.4 | 3 | -2 | 29% | -4
Nc1nc(Cl)cc(N2CCC(c3cc(-c4ccc(Cl)cc4Cl)n[nH]3)CC2)n1
→ ? | 3.8 | -3 | -5 | -6% | 22
CC(C)(C)C(=O)N1c2ccccc2CCc2ccccc21
→ -25% | -3.8 | 16 | 1 | -6%[15.4 µM] | -30
CN(C)CCCNC(=O)Cc1ccc(Br)cc1
→ -11% | -5.6 | 13 | 8 | ? | -9
Cc1ccc(C(=O)Nc2ccc(N3CCN(C)CC3)cc2)c(Cl)c1
→ -2% | -2.1 | 2 | -10 | -79%[inhibitor] | -4
O=C(Nc1ccc2oc(-c3ccccc3)nc2c1)c1ccc2c(c1)OCCO2
→ -16% | -2.3 | 0 | -3 | -4% | -8
O=C(Cc1ccc(NC(=O)C2CCN(C(=O)C3CC3)CC2)cc1)Nc1ccc(C(=O)N2CCOCC2)cc1
→ 9% | 0.1 | 4 | -21 | / | -4
CCOc1ccc2ccccc2c1/C=N\NC(=O)OC
→ -6% | 0.4 | 6 | 7 | 14%[15.4 µM] | -20
COC(=O)c1ccc(NC(=O)CSc2nncn2-c2cccnc2)cc1
→ -9% | 1.5 | 3 | -16 | -27% | -3
CCOC(=O)c1ccc(NC(=O)C2CCCN(S(=O)(=O)c3ccc(F)cc3)C2)cc1 (stereo not drawn)
→ ? | 0.3 | -1 | -1 | -19% | 8
NS(=O)(=O)OCc1ccc(C(F)(F)F)cc1
→ 12% | -2.8 | 1 | 9 | 17% | -1
CN(C)c1ccc(/C=N/NC(=O)c2ccc3nc[nH]c3c2)cc1
→ -15% | -1.6 | -2 | -3 | -5%[15.4 µM] | -3
Cc1nnc(NC(=O)CSc2n[nH]c(-c3ccccc3C)n2)s1
→ -4% | -1.1 | 6 | 2 | -2%[15.4 µM] | -1
O=C(CN(C(=O)CCC(=O)Nc1nccs1)c1ccc(F)cc1)NCc1ccccc1
→ -7% | -6.1 | -4 | -15 | -5%[15.4 µM] | -11
Cc1nc2c(-c3ccc(F)cc3)c(C)nn2c(C)c1CCC(=O)N1CCN(c2ccccc2)CC1
→ 3% | -30 | 29 | 4 | 27% | -4
Cn1ncc(Cl)c1C(=O)N1CCC(Cc2ccccc2)CC1
→ -3% | -3.8 | -5 | -13 | ? | -13
Cc1cc(C)cc(NC(=O)CCCCCN2C(=O)[C@@H]3Cc4ccccc4CN3C2=O)c1
→ 2% | 4.1 | -3 | / | 3% | -5
CCOc1ccc(N(CC(=O)Nc2ccc(C)c(C)c2)S(C)(=O)=O)cc1
→ 5% | 1.2 | 4 | 6 | 4%[15.4 µM] | -13
CCCCn1c(N)c(Sc2ccc(Cl)cc2)c(=O)[nH]c1=O
→ 10% | 0.1 | -1 | 2 | ? | -6
O=C(CN1CCN(S(=O)(=O)c2cc(Cl)ccc2Cl)CC1)c1ccc(O)c(O)c1
→ 9% | 0.2 | -2 | / | 4% | -3
COc1ccc(NCc2nc3ccccc3n2CCOc2ccc(C)cc2)cc1
→ -19% | -5.6 | ? | -16 | -11%[15.4 µM] | -17
Cc1ccc(S(=O)(=O)NCC2CCC(C(=O)O)CC2)cc1 (stereo not drawn)
→ -18% | -3.8 | 5 | 11 | -20% | -3
Cc1cc2c(cc1S(=O)(=O)N(C)C1CCCCC1)OCC(=O)N2
→ 3% | -2.2 | -4 | -13 | 1% | 2
Cc1cc2nnc(SCC(=O)Nc3cc(S(=O)(=O)N4CCOCC4)ccc3Cl)n2c2ccccc12
→ -6% | 1.4 | ? | ? | -10% | 9
C[C@@H](C[C@@H](O)[C@H](O)C(C)(C)O)[C@@H]1CC[C@]2(C)C3=CC[C@H]4C(C)(C)C(=O)CC[C@]4(C)[C@H]3CC[C@@]12C
→ -1% | -0.1 | -9 | / | ? | -14
CCOC(=O)c1sc2nc(CC(=O)OC)nc(N3CCN(c4ccc(OC)cc4)CC3)c2c1C
→ -1% | -0.7 | ? | -25 | 22% | -19
CSc1sc(C(=O)N(C)C)cc1S(=O)(=O)C(C)C
→ 1% | -6.5 | 4 | / | 6% | -19
CN(C(=O)COC(=O)COc1ccc2ccccc2c1)c1ccccc1
→ / | -3.7 | -1 | 5 | -6% | -1
CNC(=S)N/N=C/c1cc(C)n(-c2ccc(Cl)c(Cl)c2)c1C
→ -3% | -1.9 | -17 | -10 | -14% | -21
CCN(CC)CCCNC(=O)C1CCC(CNS(=O)(=O)c2c(C)cc(C)cc2C)CC1 (stereo not drawn)
→ 12% | 3.6 | 2 | -2 | 25% | 0
CSc1nsc(SCC(=O)Nc2ccc(C(=O)O)cc2)n1
→ 7% | -0.6 | 7 | 1 | 0% | -1
CCOc1ccc(S(=O)(=O)NCCC(=O)N2CCC(Cc3ccccc3)CC2)cc1
→ ? | -1.7 | -6 | 0 | -64%[inhibitor] | 1
O=C(CSc1nnnn1-c1ccc(Cl)cc1)NC(=O)Nc1ccc2c(c1)OCCO2
→ -5% | -0.4 | -1 | 14 | 29% | -3
O=C(CCc1ccccc1)NNC(=O)c1ccc(NC(=O)c2ccccc2)cc1
→ 12% | 0.1 | -2 | 0 | -5%[15.4 µM] | -7
Cc1cc(/C=C(\C#N)C(=O)Nc2ccccc2)c(C)n1-c1cccnc1
→ ? | -1.2 | 7 | -4 | 5%[15.4 µM] | -7
C/C(=C\C(=O)c1ccc(Cl)cc1)Nc1ccc(N2CCOCC2)cc1
→ 15% | -4.3 | -1 | -1 | -11% | -11
O=C(O)c1ccc2c(c1)-c1cc(C(=O)O)ccc1S2(=O)=O
→ 11% | -0.5 | 4 | 7 | -19% | -9
Cc1nc(-c2cccc(-c3noc(C)n3)c2)no1
→ -1% | -1.5 | 2 | 4 | 27% | -1
CCOC(=O)N1CCN(c2cccc(C)c2C)CC1
→ -9% | -0.3 | 7 | -2 | 29%[15.4 µM] | 1
O=c1cc(-c2ccccc2)oc2ccc(Cl)cc12
→ -3% | -1.5 | 10 | 8 | 6% | -8

Other structures
Results follow in this order: gsp antag | D2 agonist | Six1-Eya2 blk | CtBP-E1A blk | gsp agonist | D2 PAM
CCCc1cc(=O)[nH]c(SCC(=O)Nc2nonc2N)n1
→ -6% | -0.2 | 3 | 7 | -37%[inhibitor] | 6
CCOC(=O)C1(CCOc2ccccc2)CCN(Cc2cccc(F)c2)CC1
→ 8% | -3.7 | 9 | 4 | 20% | -5
COc1ccc(C(=O)NC(=S)N2CCCCC2)cc1[N+](=O)[O-]
→ 9% | -1.1 | 0 | -7 | 6% | 1
CN(C(=O)c1ccncc1)C1CCCN(Cc2ccccc2F)C1 (stereo not drawn)
→ 9% | 5.7 | 5 | 1 | ? | -3
Cc1ccccc1C(=O)OC1CCN(C)CC1
→ 2% | -2.5 | -1 | 9 | 18%[15.4 µM] | -13
CCCOc1ccc(F)cc1-c1cc(C(=O)Nc2ccc(F)cc2)[nH]n1
→ / | 6.5 | -1 | 1 | / | -19
O=C(c1ccco1)N1CCN(C(=S)Nc2ccc(Br)cc2Cl)CC1
→ -8% | 5.9 | 12 | -7 | 13% | 21
O=C(OC1CCCCC1)c1cc2ccccc2oc1=O
→ -4% | 2.5 | 1 | -3 | -13% | -5
CC(C)N=C(NC#N)SCc1ccc(F)cc1
→ -11% | -1.8 | 4 | 5 | 29% | -8
CC1=C(C(=O)OCc2ccccc2)C(c2ccc3ccccc3c2)NC(=O)N1CCCC(=O)O (stereo not drawn)
→ ? | 0.5 | 2 | 0 | / | 3
O=C(c1ccccc1)N1CCN(c2ccccc2F)CC1
→ 16% | 2.3 | 6 | 9 | -3% | -10

2 records drawn at random from the list so far, as already listed:
Results follow in this order: gsp antag | D2 agonist | Six1-Eya2 blk | CtBP-E1A blk | gsp agonist | D2 PAM
O=C(c1ccccc1)N1CCN(c2ccccc2F)CC1
→ 16% | 2.3 | 6 | 9 | -3% | -10
COc1ccc(C(=O)NC(=S)N2CCCCC2)cc1[N+](=O)[O-]
→ 9% | -1.1 | 0 | -7 | 6% | 1

Screens deposited in PubChem BioAssay by National Center for Advancing Translational Sciences (NCATS).
